# Compound activity deposited in PubChem BioAssay by National Center for Advancing Translational Sciences (NCATS).
# CtBP-E1A inh – blocks the CtBP interaction with E1A; AlphaScreen GST-E1A/His-CtBP binding, 1536-well; active compounds read low; control for the full effect not named in the record; activity change, % (no concentration beside the values); 340,000 tested, 0.49% active; in the data active means activity change below about -65%; inconclusive means about -30% to -65%; inactive means above about -30%; also: % is scaled to controls: 0 for no effect and ±100 for the full control effect
#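 Homogeneous bead-based format: GST-tagged E1A captured on glutathione donor beads, His-tagged CtBP on nickel acceptor beads; compounds precede bead addition by 2 h at 37 °C.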
# Menin-MLL FL inh – menin-MLL binding inhibition, fluorescein peptide; Fluorescence polarization, fluorescein-MLL peptide displacement from menin; FP activity change, % at 61.4 µM; 290,000 tested, under 10 active; AID 1766; inconclusive = falling polarisation curve, or a change in total fluorescence; inactive = total fluorescence flat and polarisation flat or rising; no compound was filed as active; the % refers to the polarisation; negative = inhibition;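 also: % of control where 0% means no effect; inhibitors lower the polarisation; unlabelled MLL peptide was the positive control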
# gsp antagonist – antagonists of gsp mutant (McCune-Albright syndrome) | gsp-mutant cells, cAMP HTRF, 30 min; control for the full effect not named in the record | Potency, µM (series often up to 76.9 µM), for the others: at the top dose activity change, negative = inhibition, most hits filed as inhibitors | 340,000 tested, 0.4% active; active = falling curve of any shape with a large fitted effect; inconclusive = falling curve, mostly with a smaller effect; inactive = flat or rising curve; cell line not stated here;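 also: intracellular cAMP measured with PDE inhibitor Ro 20-1724 present during compound exposure; potency is read from the fitted curve at half-maximal effect; % is scaled to controls: 0 for no effect and ±100 for the full control effect; nearly all actives have a fitted effect of over 65% in size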
#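 Measurement of cellular cAMP by homogeneous time-resolved fluorescence following a 30 min compound exposure at 37C. The PDE inhibitor […] was present throughout; the assay buffer was DPBS with 0.05% BSA and 0.005% Tween 20.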
# TRPV1 potentiator – enhances activation of the human vanilloid receptor TRPV1; TRPV1-expressing cells, Fluo-8 calcium influx, capsaicin EC20 potentiation; host cell line not named in the record; control for the full effect not named in the record; 320,000 tested, 0.02% active; Q8NER1; potentiation, % at 8.33 µM; active means potentiation above 80%; inconclusive means 30% to 80%; inactive means below 30%; also: 0% is about no effect
# Target sequence (Q8NER1 whole entry, looked up): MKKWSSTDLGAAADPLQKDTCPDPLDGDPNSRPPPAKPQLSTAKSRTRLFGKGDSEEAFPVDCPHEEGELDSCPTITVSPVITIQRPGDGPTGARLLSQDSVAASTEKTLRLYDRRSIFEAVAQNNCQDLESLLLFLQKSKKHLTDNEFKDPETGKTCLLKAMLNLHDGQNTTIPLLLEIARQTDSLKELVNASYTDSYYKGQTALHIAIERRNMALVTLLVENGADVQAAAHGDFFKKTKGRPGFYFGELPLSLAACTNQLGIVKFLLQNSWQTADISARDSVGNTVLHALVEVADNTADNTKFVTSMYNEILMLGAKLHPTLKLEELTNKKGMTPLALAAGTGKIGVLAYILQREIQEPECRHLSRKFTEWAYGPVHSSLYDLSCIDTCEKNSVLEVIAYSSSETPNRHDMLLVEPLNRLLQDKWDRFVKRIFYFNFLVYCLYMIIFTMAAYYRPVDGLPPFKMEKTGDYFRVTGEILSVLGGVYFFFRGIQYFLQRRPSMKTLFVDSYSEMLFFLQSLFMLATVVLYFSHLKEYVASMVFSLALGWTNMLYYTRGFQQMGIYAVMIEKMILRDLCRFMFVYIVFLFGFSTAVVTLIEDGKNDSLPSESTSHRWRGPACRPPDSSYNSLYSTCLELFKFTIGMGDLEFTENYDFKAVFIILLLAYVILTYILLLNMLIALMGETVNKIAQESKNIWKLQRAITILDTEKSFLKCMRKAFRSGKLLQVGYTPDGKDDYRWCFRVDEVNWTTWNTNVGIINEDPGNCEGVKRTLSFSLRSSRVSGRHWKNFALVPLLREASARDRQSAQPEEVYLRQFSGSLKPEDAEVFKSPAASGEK
#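 Cells expressing TRPV1 were dye-loaded with Fluo-8 and read kinetically: 10 s baseline, 3 min after compound (agonist portion), then 2 min after EC20 capsaicin (allosteric enhancer portion). Calcium-bound dye fluorescence at 480/520 nm.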
# ClpP mod – qHTS Assay for Activators of ClpP; ATP-dependent Clp protease proteolytic subunit (Bacillus subtilis (strain 168)), P80244; purified B. subtilis ClpP, FRET peptide cleavage, 20 min; Potency, µM (top dose mostly 57.5 µM), for the others: at the top dose activity change, negative = active; 340,000 tested, 1.9% active; AID 651965, 2013; active = well fitted falling curve with a large enough effect; inconclusive = small, poorly fitted or top-dose-only effect; inactive = no such curve, though single readings can be large or run the other way; also: potency is read from the fitted curve at half-maximal effect; the source files actives as falling curves though it sought activators and does not explain the sign; nearly all actives have a fitted effect of over 65% in size; many hits overshoot -100%
# Target sequence (P80244 whole entry, looked up): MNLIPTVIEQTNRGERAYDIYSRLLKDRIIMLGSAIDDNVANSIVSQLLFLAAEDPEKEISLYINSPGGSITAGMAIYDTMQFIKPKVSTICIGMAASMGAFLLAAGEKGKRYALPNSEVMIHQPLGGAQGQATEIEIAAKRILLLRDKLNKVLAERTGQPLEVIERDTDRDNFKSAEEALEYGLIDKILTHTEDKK
#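 FRET quenching reversal measured ClpP activation: 10 microg/mL B. subtilis ClpP at pH 8 with the FRET-FV decapeptide, read at 430 nm after 320 nm excitation. The 20-min minus 0-min signal was scaled between DMSO/no-enzyme wells and ADEP (5.8 microM final).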
# gsp ag – agonists of gsp mutant (McCune-Albright syndrome). gsp mutant cells, cAMP HTRF, 30 min; control for the full effect not named in the record. 340,000 tested, 0.13% active. AID 624287. Potency, µM (doses to about 76.9 µM), inactives show at the highest dose activation (cAMP increase), hits mostly activators; active = well fitted activation curve with a large enough effect; inconclusive = small, poorly fitted or top-dose-only effect, or another doubt; inactive = no such curve, though single readings can be large or run the other way; cell line not stated here;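 also: phosphodiesterase inhibitor Ro 20-1724 added with compounds to block cAMP breakdown; potency is read from the fitted curve at half-maximal effect; nearly all actives have a fitted effect of over 60% in size; about a fifth of the inactives were tested at one dose only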
#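 Cells stably selected in G418 were plated at 2000/well, grown 16-24 hr, then given compounds in DMSO with the PDE inhibitor […] (300 uM solution added) for 30 min at 37C; cAMP was read by HTRF.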
# Sfp PPTase inh – inhibitors of Bacillus subtilis Sfp phosphopantetheinyl transferase; Q9F4F7; Biochemical Sfp PPTase activity, qHTS; Potency, µM, without a hit: max response, negative = inhibition, usual class: inhibitors; 310,000 tested, 3.5% active; AID 1490; active = well fitted inhibition curve with a large enough effect; inconclusive = small, poorly fitted or top-dose-only effect, or another doubt; inactive = no such curve, though single readings can be large or run the other way;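 also: the enzyme is Sfp with the accession as filed and its product quenches rhodamine fluorescence; potency is read from the fitted curve at half-maximal effect; 0% = enzyme reaction without inhibitor and -100% = no enzyme wells; top concentration of the series not given in the record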
#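 Step 1, compound plus 15 nM Sfp-PPTase, 15 min, room temperature. Step 2, add rhodamine-CoA (5 uM) and BHQ-2-YbbR (12.5 uM). Step 3, read 525/598 nm fluorescence at 0 and 30 min.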
# Numbers without * were called inactive; u = inconclusive; x = not tested or not shown; [ ] = remark or other dose.
Compound	CtBP-E1A inh	Menin-MLL FL inh	gsp antagonist	TRPV1 potentiator	ClpP mod	gsp ag	Sfp PPTase inh
CC(=O)c1sc(NC(=O)COc2ccc([N+](=O)[O-])cc2)nc1C	0	-3.0	-2%	15	x	0%	6%
Cc1nn(C)cc1-c1n[nH]c(=S)n1-c1ccc(Cl)cc1	10	-1.4	-9%	-5	-1.0%	1%	u
CC1Cc2ccccc2N1C(=S)Nc1ccc(S(N)(=O)=O)cc1 (centres undefined)	2	1.1	4%	1	-3.0%	-6%	-7%
O=C(CN(CC1CCCO1)C(=O)CNS(=O)(=O)c1ccc(F)cc1)NCCc1ccccc1 (centres undefined)	3	x	1%	3	x	-15%[15.4 µM]	14%
Cc1ccc2[nH]c(-c3ccccc3)cc(=O)c2c1	x	-1.5	15%	0	4.2%	u	12%
CC(C)c1nnc(NC(=O)CCC(=O)NC2CC2)s1	x	x	4%	4	-0.8%	-12%	10%
COc1ccc(N(C(=O)c2ccco2)C(C(=O)NC2CCCC2)c2ccc(N3CCOCC3)cc2)c(OC)c1 (centres undefined)	-3	x	-9%	-13	x	0%	1%
CC(=O)NC(CC(=O)NCCN1C(=O)S/C(=C\c2ccccc2)C1=O)c1ccccc1 (centres undefined)	-3	7.5	-3%	u	-1.5%	5%	-23%
COc1ccc(-c2noc(CSc3nnc(Cc4ccccc4)n3-c3ccc(Cl)cc3)n2)cc1	-5	1.1	-28%	-4	1.5%	-2%	2%
Cc1ccc(S(=O)(=O)NC(C)C(=O)OCC(=O)N(C)c2ccccc2)cc1 (centres undefined)	x	x	-20%	-8	-0.8%	-43%[inhibitor]	x
CC(=O)c1sc(Nc2nc(C)cc(C)n2)nc1C	4	-2.9	6%	8	-4.2%	18%	-7%
O=C(NC(=S)NNC(=O)c1ccccc1O)c1ccc(F)cc1	-94*	-5.9	-12%	-13	x	u	18%
CCc1ccc(-n2c(Cn3nc(C(F)(F)F)cc3C)n[nH]c2=S)cc1	13	-1.5	-1%	-4	0.5%	u	-21%
O=C1N=C(N2CCOCC2)SC1=Cc1ccco1	1	x	-5%	x	x	26%	x
COc1ccc(Oc2ccccc2C#N)cc1	28	-4.2	10%	14	-4.2%	-7%	5%
Cc1cc(C(=O)CSc2nnc(-c3cccc(F)c3)n2N)c(C)n1Cc1ccc2c(c1)OCO2	-21	1.1	u	3	0.2%	-11%	-2%
NCCCC(=O)N1c2ccccc2Sc2ccc(Cl)cc21	1	3.2	u	-10	0.5%	6%[15.4 µM]	0%
COc1cc2c(cc1OC)CN(C(=O)C1CCN(S(=O)(=O)c3ccccc3F)CC1)CC2	-23	-0.1	-8%	-8	x	-1%	4%
CCON1C(=O)CN(C(=O)OC)C1c1ccc(Cl)cc1Cl (centres undefined)	3	-1.4	-6%	20	-0.7%	-46%	5%
COC(=O)c1ccccc1NC(=O)c1ccccc1N(C)S(=O)(=O)c1ccccc1	-28	-0.2	8%	-26	-1.4%	12%[15.4 µM]	6%
CC1CCN(c2c(NCC3CCC(C(=O)N4CCCCC4)CC3)c(=O)c2=O)CC1 (centres undefined)	1	0.0	1%	0	2.5%	-31%[inhibitor]	-9%
O=C(COC(=O)c1ccc(OC(F)(F)F)cc1)NCCN1C(=O)CSC1=O	x	x	4%	-2	0.0%	7%	x
COc1ccccc1CCNC(=O)CSc1nc(=O)[nH]c2c1CCC2	-1	x	1%	6	1.2%	10%	x
CCN(CC(=O)Nc1c(F)cccc1F)C(=O)Cc1sc(C)nc1-c1ccc(F)cc1	-5	x	5%	-6	-3.1%	1%	x
Cc1ccc[n+](CC(=O)c2ccc(NC(=O)c3ccccc3)cc2)c1C	-20	x	7%	x	x	4%	x
CCOC(=O)C1=CN(CC)CCC1=O	2	x	8%	x	-0.3%	x	x
COc1ccc(NC(=O)CSc2nc3c(c(=O)n2-c2ccc(F)cc2)SCC3)c(OC)c1	0	2.7	-3%	-25	1.7%	3%	14%
FC(F)Sc1ccc(-n2c(-c3ccc(Cl)cc3)c[n+]3c2CCC3)cc1	x	-7.5	6%	-5	-6.9%	4%	12%
N/C(=N\OC(=O)Oc1ccccc1)c1cccc([N+](=O)[O-])c1	3	5.7	6%	7	-0.8%	-12%	4%
COc1cc(-c2nnc(COC(=O)CSCC(=O)Nc3cc(C)on3)o2)cc(OC)c1OC	0	x	-2%	-7	30%	-5%	x
O=C(CNC(=O)c1ccc(Br)cc1)OC1CCOC1=O (centres undefined)	8	x	x	x	-0.4%	-46%[inhibitor]	x
COc1ccc(-c2cc(-c3ccccc3)n3ncnc3n2)cc1	0	-2.9	-13%	-11	32µM*	10%	-2%
Fc1cc2[nH]c(=S)[nH]c2c(Br)c1N1CCSCC1	-19	5.9	20%	8	-11%	-28%	50µM*
C(=C\n1nnc2ccccc21)/c1ccccn1	-2	x	-5%	9	-1.5%	x	x
CCCN1CCN(S(=O)(=O)c2ccc(-c3cc(C)no3)s2)CC1	-4	-0.2	12%	-3	-1.3%	-6%	16%
Nc1ccc2c3c(ccc([N+](=O)[O-])c13)CC2	-14	x	x	x	0.3%	22%	x
O=C(O)c1ccc(OCC(F)(F)F)nc1	9	15	4%	4	x	-30%	10%
C[C@@H]1CN([C@@H](C)CO)C(=O)c2cc(C#Cc3cccc(F)c3)cnc2O[C@H]1CN(C)C(=O)C1CCCCC1	-4	x	x	x	-1.6%	-8%	x
COc1ccc(OCc2cc(C(=O)NCC3CCCCO3)no2)c(Cl)c1 (centres undefined)	1	-1.2	0%	3	-2.0%	12%	-4%
COc1ccc(NC(=S)N(CCN2CCOCC2)Cc2cc3cc4c(cc3[nH]c2=O)OCO4)cc1	x	-3.8	x	0	x	x	2%
CN(C)C(=O)c1ccc2c(c1[N+](=O)[O-])C(=O)c1ccccc1C2=O	-17	1.8	5%	2	0.5%	5%	17%
COc1cccc(CC2CC(=O)N(CCc3ccc4c(c3)OCO4)C2=O)c1 (centres undefined)	-6	0.7	4%[15.4 µM]	16	-1.6%	2%	-1%
COc1ccc2c(c1)C(=NO)c1cc(OC)ccc1-2	-2	-1.1	-19%	11	-1.0%	1%	7%
Cc1cc(/C=N/O)c(C)n1-c1ccccc1	-5	1.4	-8%	6	x	-15%	14%
CN(C(=O)c1ccc(NC(=O)Cc2cccc(NC(=O)C3CCN(C(=O)C4CCCCC4)CC3)c2)cc1)C1CC1	-1	x	9%	x	-0.5%	x	x
O=C(Nc1nccs1)c1ccccc1N=Cc1ccccc1	31	3.5	8%[15.4 µM]	-8	28µM*	4%	-3%
OCC1(Cc2ccc(F)cc2)CCCN(Cc2ccc(F)cc2Cl)C1 (centres undefined)	-8	-2.5	5%	-9	x	-31%[inhibitor]	5%
O=C(CCC(=O)NC1CCCCCC1)Nc1nnc(C(F)(F)F)s1	7	-0.4	-14%	u	1.5%	5%	13%
O=C(Nc1ccn(-c2ccccc2)n1)c1ccccc1Br	x	2.8	-5%	-4	0.1%	-6%	14%
Cc1nc2sc(C(c3ccco3)N3CCN(c4ccccc4)CC3)c(O)n2n1 (centres undefined)	1	-4.5	-1%	10	-0.9%	-43%[inhibitor]	u
Cc1ccccc1NC(=O)NCCCCc1ccccc1	-1	-3.1	-5%	-7	1.6%	29%	0%
Cc1c(OC(C)C(=O)NCc2ccccn2)ccc2c3c(c(=O)oc12)CCC3 (centres undefined)	-2	x	u	-1	4.3%	-21%	6%
O=C(CNC(=O)c1cccs1)Nc1ccncc1	5	x	8%	8	-1.0%	-8%	x
C/C(=N/Oc1nc(C)cc(C)n1)c1ccccc1	1	-0.8	7%	-7	-2.9%	u	-17%
CCOc1ccc(Br)cc1S(=O)(=O)Nc1ccc(N2CCOCC2)cc1	-6	2.3	-1%	13	-0.5%	12%	3%
OC(c1ccccc1)C(O)c1ccccc1 (centres undefined)	x	x	9%	x	0.2%	-3%	x
C=C(C)Cn1c(CCNC(=O)C(C)(C)C)nc2ccccc21	4	3.6	3%	7	-0.1%	-16%	16%
Cc1cc(C)c2nc(SCC(=O)Nc3cc(C)on3)c(C)cc2c1	-1	-1.7	-2%	u	x	-41%[inhibitor]	6%
Cc1ccc([N+](=O)[O-])cc1NC(=O)C(C)N1CCCCC1 (centres undefined)	-12	1.6	-4%	20	x	u	0%
Cc1onc(C(=O)NC(C)c2ccccc2)c1[N+](=O)[O-] (centres undefined)	-2	2.4	22%	0	x	u	7%

# Further records follow:
Compound	CtBP-E1A inh	Menin-MLL FL inh	gsp antagonist	TRPV1 potentiator	ClpP mod	gsp ag	Sfp PPTase inh
COC(=O)c1cc2c(cc1[N+](=O)[O-])OCO2	-1	-1.5	8%	3	-2.7%	1%	12%
Cc1sc2nc(CSc3ccccc3)nc(N3CCOCC3)c2c1C	3	2.8	-11%	7	-2.7%	5%	-5%
COc1ccc(C(=O)NNC(=O)c2ccc3ccccc3n2)cc1	-14	x	-5%	-20	u	-4%	x
CC1CCC(NC(=O)CCNC(=O)c2ccccc2)CC1 (centres undefined)	13	-1.8	8%	2	0.2%	-23%	5%
O=C(Nc1ccc(C(=O)N2CCCC2)cc1)c1ccc2c(c1)OCO2	6	5.5	-14%	-3	0.1%	21%	12%
COc1cccc(-c2nnn(CC(=O)O)n2)c1	-1	0.7	10%	-4	-2.5%	-64%[inhibitor]	22%
Cc1cc(=O)n(-c2ccc3ccccc3n2)[nH]1	-25	1.5	1%	1	-2.1%	-6%	4%
CCCc1cc(N2CCCC(C(=O)Nc3ccc(OC)cc3OC)C2)n2ncnc2n1 (centres undefined)	5	1.4	-5%	-16	-0.3%	0%	-2%
COc1cc(C(=O)Nc2ccccc2N2CCOCC2)ccc1OCc1c(C)noc1C	16	1.3	-5%	2	-3.4%	-35%[inhibitor]	10%
